Assay outcomes: PubChem, National Center for Advancing Translational Sciences (NCATS)
TRPML1 agonist = human mucolipin-1 channel agonism | Q9GZU1 | TRPML1-expressing cells, Ca2+ dye fluorescence, FDSS; host cell line not named in the record; reference of the full effect not given here | activation, % (concentration not given with the values) | 0.12% of 410,000 active; in the data active = activation above about 50%; inconclusive = about 30% to 50%; inactive = below about 30%; further: 0% is about no effect; the text of the record puts the active cut at 80%
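Kinetic FDSS Ca2+ read in Tet-induced TRPML1-DL cells (ABD Ca8 dye plus quencher, 45-90 min RT loading): baseline, then compound, then 110 s agonist window; EC80 agonist 54-4 at 4uM final added afterwards for a 110 s antagonist window.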
TRPV1 potentiator = enhances activation of the human vanilloid receptor TRPV1. AID 540277. Q8NER1. 0.02% of 320,000 active. TRPV1-expressing cells, Fluo-8 calcium influx, capsaicin EC20 potentiation; host cell line not named in the record; control for the full effect not named in the record. potentiation, % at 8.33 µM; active means potentiation above 80%; inconclusive means 30% to 80%; inactive means below 30%; further: 0% is about no effect
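Fluo-8 calcium influx in TRPV1-expressing cells, kinetic read (ex 480/em 520 nm). Compound added and read 3 min for agonist activity, followed by capsaicin at EC20 final and 2 min further read for enhancement.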
TRPML1 blocker = inhibitors of human TRPML1 channel | 0.02% of 390,000 active | activity change, negative = inhibition, % (no concentration beside the values) | Q9GZU1 | TRPML1-inducible cells, Ca2+ dye fluorescence, FDSS; active compounds read low; inhibition of EC80 agonist-evoked calcium signal; in the data active means activity change below about -50%; inconclusive means about -30% to -50%; inactive means above about -30%;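 further: stimulus is agonist 54-4 at its EC80 concentration; on the % scale 0 is the no-effect control and ±100 the full control effect; compound concentration not given in the record; the text of the record puts the active cut at -80%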
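Tet-induced TRPML1-DL cells loaded with Ca8 no-wash calcium dye were read kinetically on FDSS. Compound addition was followed by EC80 agonist 54-4 (4 uM final); inhibition was read over 110 s.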
D2 potentiator = human D2 receptor positive allosteric modulation | DiscoveRx D2 beta-arrestin cells, luminescence, 90 min; 100% = 57 uM dopamine signal | potentiation, % (test concentration not listed) | 0.23% of 360,000 active; active = potentiation of 50% or more; inconclusive = 30% to 50%; inactive = 30% or less;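 further: compound concentration not given in the record; tested on top of an EC20 dose of dopamine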
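PathHunter beta-arrestin assay in DiscoveRx D2 cells. Compounds were added with an EC20 of dopamine (50 nM final) for 90 min at 37 deg C. Luminescence was read 1 h after detection reagent, with 57 uM dopamine as the EC100 control.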
Six1-Eya2 inh = inhibitors of human Six1/Eya2 interaction | Q15475+O00167 | AlphaScreen GST-Six1/His-Eya2 binding, biochemical; active compounds read low; control for the full effect not named in the record | activity change, % (concentration not given with the values) | 0.56% of 360,000 active; in the data active = activity change below about -65%; inconclusive = about -30% to -65%; inactive = above about -30%; further: on the % scale 0 is the no-effect control and ±100 the full control effect
Target sequence (O00167 whole entry, looked up): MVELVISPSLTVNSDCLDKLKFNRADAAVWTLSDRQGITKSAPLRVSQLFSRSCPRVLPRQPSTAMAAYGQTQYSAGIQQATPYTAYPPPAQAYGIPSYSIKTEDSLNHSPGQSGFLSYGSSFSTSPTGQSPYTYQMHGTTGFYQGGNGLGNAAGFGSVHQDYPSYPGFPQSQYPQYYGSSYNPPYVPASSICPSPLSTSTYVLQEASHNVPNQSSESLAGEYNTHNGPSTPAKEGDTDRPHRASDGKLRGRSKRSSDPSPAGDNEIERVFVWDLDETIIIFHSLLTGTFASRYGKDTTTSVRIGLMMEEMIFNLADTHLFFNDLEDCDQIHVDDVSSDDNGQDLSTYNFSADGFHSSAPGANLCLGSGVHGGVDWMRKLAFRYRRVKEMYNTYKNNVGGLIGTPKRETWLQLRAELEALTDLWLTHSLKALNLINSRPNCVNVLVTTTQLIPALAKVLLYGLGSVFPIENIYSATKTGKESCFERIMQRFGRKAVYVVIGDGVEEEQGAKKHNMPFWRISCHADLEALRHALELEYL
Target sequence (Q15475 whole entry, looked up): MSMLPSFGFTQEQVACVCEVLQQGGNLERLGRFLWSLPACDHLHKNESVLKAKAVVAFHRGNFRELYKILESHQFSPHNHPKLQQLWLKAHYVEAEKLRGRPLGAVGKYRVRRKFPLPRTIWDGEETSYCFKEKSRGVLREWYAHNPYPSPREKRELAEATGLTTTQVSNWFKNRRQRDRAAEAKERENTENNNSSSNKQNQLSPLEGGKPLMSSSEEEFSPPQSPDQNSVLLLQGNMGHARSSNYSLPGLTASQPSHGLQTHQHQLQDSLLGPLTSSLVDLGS
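AlphaScreen with GST-Six1 and His-Eya2 (5X mix: 250 nM and 500 nM), glutathione donor and nickel acceptor beads; buffer 50 mM Tris pH 8.0, 300 mM NaCl, 1 mM TCEP; 1 h at 37 C in the dark.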
CtBP-E1A inh = CtBP/E1A binding inhibition; AlphaScreen GST-E1A/His-CtBP binding, 1536-well; active compounds read low; control for the full effect not named in the record; activity change, % (no concentration beside the values); AID 651724; 0.49% of 340,000 active; in the data active means activity change below about -65%; inconclusive means about -30% to -65%; inactive means above about -30%; further: on the % scale 0 is the no-effect control and ±100 the full control effect
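AlphaScreen with 125 nM GST-E1A and 125 nM His-CtBP (5X stocks) in Tris pH 8.0, 300 mM NaCl, BSA, Tween 20, TCEP. Compounds preincubated 2 h at 37 deg C, then glutathione donor/nickel acceptor beads added for 1 h at 37 deg C in dark.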
The depositor's hits bear a star; ? = inconclusive; nt = not tested or not shown.

SMILES	TRPML1 agonist	TRPV1 potentiator	TRPML1 blocker	D2 potentiator	Six1-Eya2 inh	CtBP-E1A inh
Cc1nn(C(C)C(=O)NCc2ccccc2)c(C)c1[N+](=O)[O-] (stereo unspecified)	-0.8	-1	16	-4	7	15
Cc1ccc(S(=O)(=O)CCc2nnc(NC(=O)C3CCCO3)s2)cc1 (stereo unspecified)	2.7	5	11	10	12	1
Cc1cc(C)nc(NS(=O)(=O)c2ccc(N=Cc3c(C)[nH]n(-c4ccccc4)c3=O)cc2)n1	-0.8	-10	-1	-12	?	2
CCOC(=O)C1=C(N)Oc2c(oc(CO)cc2=O)C1c1c(F)cccc1Cl (stereo unspecified)	0.2	10	-5	-8	2	-1
Clc1ccc(Nc2ncnc3ccc(Br)cc23)cc1	-0.1	0	14	-18	11	11
O=C1NN=C(c2ccc(Cl)cc2)CC1c1c[nH]c2ccccc12 (stereo unspecified)	0.8	7	-9	-9	-8	0
Oc1ccc(C=NCC2COc3ccccc3O2)cc1 (stereo unspecified)	-0.3	9	1	-19	1	-2
COc1ccc(/C=c2\sc3nc(-c4ccccc4OC)nn3c2=O)c(OC)c1	0.1	12	-22	-8	4	-4
O=C1CC(C(=O)Nc2ccc(Cl)cc2)n2ncnc2N1 (stereo unspecified)	0.5	-10	6	-4	17	7
COc1ccc(-c2csc(-n3ncc(C(=O)O)c3C(F)(F)F)n2)cc1	0.2	-7	29	-5	2	nt
O=C(Cc1cccc(C(F)(F)F)c1)OCN1C(=O)c2ccccc2C1=O	-0.1	?	5	-1	7	-8
COc1ccc(CNc2oc(COc3ccc(Cl)cc3)nc2C#N)cc1	0.1	18	8	10	-10	1
O=C1CCC/C(=N\NC(=O)c2ccc(NS(=O)(=O)c3ccc(Br)cc3)cc2)C1	-0.4	-7	-8	-4	3	6
CN(C)c1ccc(NS(=O)(=O)c2cc(Cl)ccc2Cl)cc1	4.3	-1	7	17	?	3
O=c1[nH][nH]c(C(F)(F)F)c1C=NCc1cccs1	-0.6	5	26	-1	1	nt
O=C(COC(=O)c1ccc(Cl)nc1)NCCc1ccc(Cl)cc1	0.4	nt	15	-17	8	-8
COc1ccc(OC)c(NC(=O)CS(=O)(=O)c2ccccc2)c1	1.6	4	-9	-8	1	8
Cc1cccc2c1OCC/C2=N\NC(=O)COc1ccccc1Cl	3.9	nt	36	2	1	7
COCCCN1C(=O)C(CC(=O)NCc2ccco2)CC(C(=O)N(C)C)=C1C (stereo unspecified)	-0.1	nt	-2	1	16	5
CCCCc1ccc(NC(=O)Nc2cnccn2)cc1	0.3	2	2	-7	5	7

Compound profiles, as listed above. Screens in order: TRPML1 agonist	TRPV1 potentiator	TRPML1 blocker	D2 potentiator	Six1-Eya2 inh	CtBP-E1A inh
Profile of Cc1nn(C(C)C(=O)NCc2ccccc2)c(C)c1[N+](=O)[O-] (stereo unspecified) = -0.8	-1	16	-4	7	15
Profile of O=C(Cc1cccc(C(F)(F)F)c1)OCN1C(=O)c2ccccc2C1=O = -0.1	?	5	-1	7	-8
Profile of O=C1CCC/C(=N\NC(=O)c2ccc(NS(=O)(=O)c3ccc(Br)cc3)cc2)C1 = -0.4	-7	-8	-4	3	6

Following part
SMILES	TRPML1 agonist	TRPV1 potentiator	TRPML1 blocker	D2 potentiator	Six1-Eya2 inh	CtBP-E1A inh
O=c1oc(-c2ccccc2)c(-c2ccccc2)c2ccccc12	4.2	nt	-1	-6	-8	-12
CCN(CC)C(=O)CSc1nc2ccccc2c(=O)[nH]1	0.4	-13	0	-5	4	-1
O=c1c(-c2ccco2)[n+]([O-])c2ccccc2n1OCc1ccccc1	0.5	0	29	9	-8	nt
CCOc1ccccc1NC(=O)c1ccc(OCC(=O)N2CCOCC2)c(OC)c1	-0.9	nt	-9	-11	1	nt
CC(=O)c1c(C)[nH]c(C(=O)N2CC(C)CC(C)C2)c1C (stereo unspecified)	-0.5	5	-19	-1	1	7
COc1ccc(OC)c(Nc2nc3nonc3nc2N2CCCC(C)C2)c1 (stereo unspecified)	2.7	20	21	12	-2	7
Cc1noc(C)c1Cn1nc(C(=O)O)c2ccccc2c1=O	-1.2	1	-9	16	2	11
CC(=O)Oc1ccc(-c2cccc(C(=O)O)c2)cc1	-0.3	-8	-14	-13	3	19
O=C(NC1CCN(C(=O)Nc2ccc(F)cc2)CC1)c1ccccc1F	0.6	-6	26	0	4	2
COc1cc(C)c(Cl)cc1S(=O)(=O)n1ccnc1C	0.5	9	13	25	1	5
COC(=O)C(C)NS(=O)(=O)c1ccc(NC(C)=O)cc1 (stereo unspecified)	0.6	6	20	-9	-1	-5
Cc1sc2ncnc(NCCCn3ccnc3)c2c1C	0.7	-8	1	-8	-1	3
CN1CCc2nc3ccc(Cl)cc3c(-c3ccccc3Cl)c2C1	-0.2	3	-12	-23	-12	-1
Cc1cc(C)n2nc(SCc3nnc(-c4cccs4)o3)nc2n1	-0.2	21	-5	1	-3	-17
Cc1cc(F)ccc1C(O)c1ncc(-c2ccccc2C(F)(F)F)[nH]1 (stereo unspecified)	-0.9	nt	nt	-4	1	0
COc1ccc(CC(NC(C)=O)C(=O)NC2CCN(S(=O)(=O)c3ccc(NC(C)=O)cc3)CC2)cc1 (stereo unspecified)	0.4	-3	-5	0	-5	-22
CCCN1C(=O)/C(=N\OCC(=O)Nc2ccc(C(C)C)cc2)c2ccccc21	2.1	14	-2	-19	-18	-18
O=C(O)[C@H](Cc1ccccc1)NC(=O)N1CCN(c2ccccc2)CC1	-0.3	-3	-6	-11	-1	nt
Cc1ccc(C(=O)NNC(=O)CNc2cccc(Cl)c2)cc1	-0.6	11	24	-3	-2	9
CCCCN(C(=O)c1oc2ccc(OCC)cc2c1C)c1c(N)n(CCCC)c(=O)[nH]c1=O	-0.7	3	4	-12	-3	32
COc1ccccc1/C=C/C(=O)NCC(=O)N/N=C/c1ccc2c(c1)OCO2	3.1	-33	3	-21	-1	-9
CCCNS(=O)(=O)c1ccc(OCC(=O)NCC2CCCO2)cc1 (stereo unspecified)	0.4	1	-14	-1	-3	-9
Cc1cccc(NC(=O)c2ccc(S(=O)(=O)N3CCCCC3)cc2)c1	2.9	-3	40	5	-1	-12
CN1CC(=O)NC1=NC(=O)C12CC3CC(CC(C3)C1)C2	0.5	-10	11	-13	6	-3
COC(=O)c1cc2c(C)nn(C)c2s1	0.5	-1	42	-1	4	12
Cc1cc(=O)[nH]c(N)n1	0.3	23	7	-9	2	5
Cc1nn(Cc2cccc(C(=O)NCC(C)C)c2)c(C)c1Br	0.9	-3	12	-2	0	-5
CC(/C=C/c1ccccc1)=N/NC(=O)CNC(=O)c1ccc2c(c1)OCO2	1.9	0	-6	-3	2	1
CC1CCCC(C)N1C(=O)COC(=O)C12CC3CC(CC(Cl)(C3)C1)C2 (stereo unspecified)	3.3	-11	15	6	-1	nt
Cc1cc(C)n2c(SCC(=O)N3CCN(S(=O)(=O)c4ccc(Cl)cc4)CC3)nnc2n1	0.4	8	49	11	0	-2
O=C1/C(=C\c2ccc(Br)o2)Cc2ccccc21	0.2	-10	24	-31	11	0
CNS(=O)(=O)c1ccc(Oc2ccc(S(=O)(=O)NC)cc2)cc1	-0.2	13	10	-6	5	-1
CC1CCCCN1CCNC(=O)C1CCN(S(=O)(=O)N2CCCCC2)CC1 (stereo unspecified)	-0.2	-3	2	0	-1	-9
Cc1cc(C)cc(Cn2ncc(Cl)c(Cl)c2=O)c1	0.8	0	0	-24	-2	6
CN1C(C(=O)NCCc2cccs2)CC2Cn3c(nc4cc(Cl)c(Cl)cc43)C21 (stereo unspecified)	-0.9	5	14	-17	2	2
CCC(C(=O)Nc1ccccc1-c1ccccc1)c1ccccc1 (stereo unspecified)	1.0	19	7	-8	23	21
Nc1cc(Oc2ccc(F)cc2F)cc([N+](=O)[O-])c1	0.1	-1	1	-5	-9	-10
COc1ccccc1N1CCN(C(=O)C2CCN(S(=O)(=O)c3ccc(F)cc3)CC2)CC1	0.4	?	1	-7	22	35
COc1cc(C(=O)Nc2cc(S(=O)(=O)N3CCOCC3)ccc2N2CCOCC2)cc(OC)c1C	0.0	nt	57	-7	5	nt
Cc1ccc(NC(=O)[C@@H]2CCCN2S(=O)(=O)c2ccccc2C(F)(F)F)cc1S(=O)(=O)N1CCOCC1	1.8	16	5	-10	0	-3

Three entries already listed, ordered by molar mass, falling:
SMILES	TRPML1 agonist	TRPV1 potentiator	TRPML1 blocker	D2 potentiator	Six1-Eya2 inh	CtBP-E1A inh
CCCNS(=O)(=O)c1ccc(OCC(=O)NCC2CCCO2)cc1 (stereo unspecified)	0.4	1	-14	-1	-3	-9
Cc1cc(C)cc(Cn2ncc(Cl)c(Cl)c2=O)c1	0.8	0	0	-24	-2	6
COC(=O)c1cc2c(C)nn(C)c2s1	0.5	-1	42	-1	4	12

(list continues)
SMILES	TRPML1 agonist	TRPV1 potentiator	TRPML1 blocker	D2 potentiator	Six1-Eya2 inh	CtBP-E1A inh
CCN(CC)C(=O)c1csc(Nc2cccc3ccccc23)n1	1.7	6	6	-3	8	0
COc1ccc(-n2ncc3c2CC(C)(C)CC3NC(=O)CCn2nc(C)cc2C)cc1 (stereo unspecified)	0.3	14	35	-17	0	-1
COc1cc(C(=O)Nc2nc3ccccc3[nH]2)ccc1OC(F)F	-0.8	16	-9	-16	-3	-7
CC(=O)Nc1cccc(NC(=O)c2ccc3[nH]c(C)c(C)c3c2)c1	-1.6	?	18	-10	-9	-5
COc1ccccc1C(=O)NC(=O)COC(=O)Cn1[nH]c(=O)c2ccccc2c1=O	-0.9	7	3	-8	4	4
O=C(NC1CCN(Cc2ccccc2)CC1)c1ccccc1Cl	-0.4	-7	3	-65	9	nt
Cc1ccc2c(nc3s/c(=C\c4ccc(-c5ccccc5C(=O)O)o4)c(=O)n32)c1C	28	-14	5	-5	-19	nt
C[C@@H](NC(=O)c1nc[nH]c1C(=O)N[C@@H](Cc1ccccc1)C(=O)OCc1ccccc1)c1ccccc1	-0.4	5	1	-3	-10	-6
Cc1cccc(N2CCN(C(=O)C3CCC(CNS(=O)(=O)c4cccs4)CC3)CC2)c1C (stereo unspecified)	2.9	16	32	-5	-9	-1
CC(=O)N1c2ccc(S(=O)(=O)N3CCC(C(=O)Nc4ccc(F)cc4)CC3)cc2CC1C (stereo unspecified)	-0.1	3	-16	-23	-1	-4
CC(C)c1cc(N2CCN(C(=O)c3ccco3)CC2)n2c(nc3ccccc32)c1C#N	-1.0	13	5	-4	-7	-13
CCOc1cc(/C=C(\C#N)C(N)=O)ccc1OCc1c(C)no[n+]1[O-]	1.7	-1	2	-5	-5	-11
O=C(CN1CCC(NC(=O)C2CCCCC2)CC1)Nc1ccccc1	0.1	nt	5	-4	7	1
CCOC(=O)N1CCC(NC(=O)CCC(=O)N2CC(C)Oc3ccc(C)cc32)CC1 (stereo unspecified)	-0.7	4	10	-21	3	18
COc1ccc(NS(=O)(=O)c2cccc(C(=O)NNC(=O)CNC(=O)c3ccc(C)cc3)c2)cc1	-0.3	13	-6	-27	-10	0
Cc1ccc(NC(=O)C2CCCN2C(=O)NC2CCCCC2)c(C)c1 (stereo unspecified)	-0.7	-3	5	-1	2	1
COc1ccccc1C(=O)NCCC(=O)Nc1cccnc1	nt	5	nt	-11	3	-13
COc1ccc(/C=C/CN2CCC(C(=O)NC(c3ccc(F)cc3)c3ccc4ccccc4n3)CC2)cc1 (stereo unspecified)	0.1	nt	nt	-13	?	?

Compounds were not picked by outcome; any-hit rate near 0.95%.
